RGS16-Gao: modulates binding between human RGS16 and Galphao; 220,000 compounds, 0.38% hits; binding response (% of control), % at 10 µM; AID 1441; bead-based flow cytometry RGS16-Galphao binding, fluorescence; actives lie on both sides;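 active = below 25% or above 175%, edge rows of some plates excepted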;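 also: Galphao activated by GDP with aluminum fluoride before binding; 100% = wells without compound and 0% = beads without RGS; some results beyond the cut were filed as inactive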
Target sequence (O15492 whole entry, looked up): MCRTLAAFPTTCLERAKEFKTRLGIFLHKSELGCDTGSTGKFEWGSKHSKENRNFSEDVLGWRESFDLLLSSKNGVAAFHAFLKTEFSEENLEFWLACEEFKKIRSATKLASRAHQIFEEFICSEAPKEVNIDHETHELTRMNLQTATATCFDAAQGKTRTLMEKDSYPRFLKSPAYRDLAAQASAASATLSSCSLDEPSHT
Target sequence (P09471 whole entry, looked up): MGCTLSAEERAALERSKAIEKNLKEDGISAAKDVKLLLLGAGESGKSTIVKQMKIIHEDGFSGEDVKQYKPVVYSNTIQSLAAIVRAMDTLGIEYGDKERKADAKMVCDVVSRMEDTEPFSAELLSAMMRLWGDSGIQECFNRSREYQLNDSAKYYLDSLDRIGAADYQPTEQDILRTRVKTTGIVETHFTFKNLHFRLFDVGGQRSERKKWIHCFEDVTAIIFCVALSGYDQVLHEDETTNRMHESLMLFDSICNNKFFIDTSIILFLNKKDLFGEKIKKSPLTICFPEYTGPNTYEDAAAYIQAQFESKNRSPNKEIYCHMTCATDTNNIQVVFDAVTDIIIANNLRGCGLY
Insulin prom inh: TRM-6 insulin promoter activity inhibition. TRM-6 cells (human fetal islet line), insulin promoter-eGFP reporter, imaging; reporter expression induced with tamoxifen. inhibition, % at 2 µM. 130,000 compounds, 0.9% hits;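 active = inhibition above the mean plus 3 SD, with well images judged a real hit on visual review, cut at about 60% in these data, passing the limit was not always enough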
PKD1 inh: blocks activity of human protein kinase D1; Q15139; PKD1 kinase fluorescence polarization assay; inhibition, %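 (about 10 µM by stock and volumes)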; 200,000 compounds, 0.056% hits; AID 797;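 active = inhibition of 50% or more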;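 also: controls were vehicle for no effect and a reference inhibitor for full effect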
HSV augment: HSV replication enhancement; HSV replication augmentation in cells, fold increase; maximum fold increase; 220,000 compounds, 0.005% hits;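 active = peak rise of 1.5-fold or more in the series; tested in PC3 cells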;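 also: first round at 10 µM; read as green reporter fluorescence; hits show the peak of a series up to 25 µM; 1 = signal of infected wells without compound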
GALR2 ag: GALR2 (human) receptor agonism. 140,000 compounds, 0.48% hits. O43603. activation, %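 (tested at 5 µM)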. GALR2-expressing cells, agonist activation read-out;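 active = above mean plus 3 SD of all compounds, about 5% in these data, not always enough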;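 also: 0% = vehicle buffer wells and 100% = reference agonist at full effect; tested in CHO reporter cells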
Target sequence (O43603 whole entry, looked up): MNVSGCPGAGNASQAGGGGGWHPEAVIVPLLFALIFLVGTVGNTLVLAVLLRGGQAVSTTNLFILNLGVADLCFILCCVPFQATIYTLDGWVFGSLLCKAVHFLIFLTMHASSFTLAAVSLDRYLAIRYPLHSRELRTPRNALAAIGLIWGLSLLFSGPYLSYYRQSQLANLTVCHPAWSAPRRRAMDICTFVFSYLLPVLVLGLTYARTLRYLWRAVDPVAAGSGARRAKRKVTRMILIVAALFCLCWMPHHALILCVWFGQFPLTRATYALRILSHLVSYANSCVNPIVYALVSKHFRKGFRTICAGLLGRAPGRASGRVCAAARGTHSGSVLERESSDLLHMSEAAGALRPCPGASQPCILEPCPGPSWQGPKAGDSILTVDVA
Insulin prom inh cell count: second read-out of Insulin prom inh, no call of its own (marks repeat the call); normalized cell count, %; measured here: cell count, toxicity; reference of the scale not given here;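 cells exposed to compound for 48 h; stained nuclei by imaging scaled within each plate; lower means fewer cells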
HSV augment primary fold: further read-out of HSV augment, marked with its call; fold increase; compound at 10 µM; measured here: primary screen fold increase 10 uM; tested in PC3 cells;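 GFP signal in the first replicate; 1 = infected wells without compound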
The depositor's hits bear a star; i = inactive; . = not tested or not shown. Compounds were not picked by outcome, and some 1.3% of all compounds hit somewhere here.

Start of the data: the first 9 records as a preview:
SMILES | RGS16-Gao | Insulin prom inh | Insulin prom inh cell count | PKD1 inh | HSV augment | HSV augment primary fold | GALR2 ag
COc1cc(/C=C/C(=O)OCC(=O)NCCC2=CCCCC2)ccc1O | 99.1 | . | . | -8.7 | i | 0.94 | .
O=C(Cc1cccs1)Nc1nnc(SCC(=O)NC2CCCCC2)s1 | 98.5 | . | . | 1.8 | i | 0.93 | -1.4
COc1ccc(C(=O)OCC(=O)Nc2ccccc2)cc1[N+](=O)[O-] | 99.2 | 23.5 | 94.4 | 2.6 | i | 0.86 | .
CCCCCCn1c(SCC(=O)c2ccccc2)nc2c1c(=O)[nH]c(=O)n2C | 106.5 | . | . | -15.2 | i | 1.06 | -0.9
Cc1cccc(OCc2nc(-c3ccccn3)n[nH]2)c1 | 105.2 | -40.0 | 104.4 | 6.0 | i | 0.9 | -2.2
CCC(=O)N1CCC2(CC1)Oc1ccc(Cl)cc1C(=O)C21CC(c2ccc(Cl)cc2)=NO1 (stereo not given) | 97.9 | . | . | . | i | 0.91 | .
CCSc1nnc(-c2cc(Br)ccc2NC(C)=O)c(=O)[nH]1 | 107.6 | . | . | . | i | 0.96 | .
Cc1cc2ncc(C(=O)Nc3ccccc3)c(C)n2n1 | 100.2 | -312.5 | 96.7 | -6.8 | i | 1.07 | -3.6
Cc1nn2c(NCc3ccccn3)cc(C(C)C)nc2c1-c1ccccc1 | 96.0 | . | . | . | i | 0.61 | .

The list itself, repeating the preview:
SMILES | RGS16-Gao | Insulin prom inh | Insulin prom inh cell count | PKD1 inh | HSV augment | HSV augment primary fold | GALR2 ag
COc1cc(/C=C/C(=O)OCC(=O)NCCC2=CCCCC2)ccc1O | 99.1 | . | . | -8.7 | i | 0.94 | .
O=C(Cc1cccs1)Nc1nnc(SCC(=O)NC2CCCCC2)s1 | 98.5 | . | . | 1.8 | i | 0.93 | -1.4
COc1ccc(C(=O)OCC(=O)Nc2ccccc2)cc1[N+](=O)[O-] | 99.2 | 23.5 | 94.4 | 2.6 | i | 0.86 | .
CCCCCCn1c(SCC(=O)c2ccccc2)nc2c1c(=O)[nH]c(=O)n2C | 106.5 | . | . | -15.2 | i | 1.06 | -0.9
Cc1cccc(OCc2nc(-c3ccccn3)n[nH]2)c1 | 105.2 | -40.0 | 104.4 | 6.0 | i | 0.9 | -2.2
CCC(=O)N1CCC2(CC1)Oc1ccc(Cl)cc1C(=O)C21CC(c2ccc(Cl)cc2)=NO1 (stereo not given) | 97.9 | . | . | . | i | 0.91 | .
CCSc1nnc(-c2cc(Br)ccc2NC(C)=O)c(=O)[nH]1 | 107.6 | . | . | . | i | 0.96 | .
Cc1cc2ncc(C(=O)Nc3ccccc3)c(C)n2n1 | 100.2 | -312.5 | 96.7 | -6.8 | i | 1.07 | -3.6
Cc1nn2c(NCc3ccccn3)cc(C(C)C)nc2c1-c1ccccc1 | 96.0 | . | . | . | i | 0.61 | .
COCCn1c(Cc2ccccc2)nnc1SCC(=O)N(C)C | 103.4 | . | . | -3.6 | i | 1.01 | -1.5
Cc1nc2ccccc2cc1C(=O)O | 99.5 | -23.3 | 103.6 | -0.5 | i | 0.997 | 0.7
CC1CCC(C(C)C)C(OC(=O)C2=C3c4ccccc4S(=O)(=O)N3CC2)C1 (stereo not given) | 95.1 | 57.9 | 95.4 | -7.8 | i | 1.08 | -3.2
CCOC(=O)C(CCCOc1ccccc1C)C(=O)OCC | 105.0 | 23.3 | 120.4 | 1.2 | i | 0.8 | -2.1
O=C(Nc1nc(-c2ccc(Br)cc2)cs1)c1cccnc1 | 103.1 | . | . | -1.5 | i | 0.96 | .
O=C(CCn1cnc2ccccc2c1=O)Nc1ccc(S(=O)(=O)N2CCCCC2)cc1 | 101.6 | 40.0 | 111.8 | -7.8 | i | 0.98 | -1.6
COc1ccc(C(=S)N2CCC(C(N)=O)CC2)cc1Br | 96.9 | . | . | -1.3 | i | 1.02 | .
O=c1[nH]c(CSc2ncn[nH]2)nc2ccccc12 | 92.8 | . | . | . | i | 1 | .
COc1ccccc1N1CCN(/N=C/c2c(C)nn(-c3ccccc3)c2C)CC1 | 99.7 | -29.6 | 44.0 | -2.9 | i | 1.15 | -2.0
CCOC(=O)c1cnc2nc(C)nn2c1N | 105.8 | 8.3 | 135.8 | 0.2 | i | 1.02 | .
Cc1c(Br)c([N+](=O)[O-])nn1CC(=O)Nc1cccc2nonc12 | 117.4 | -36.4 | 158.8 | 0.7 | i | 0.95 | .
O=c1[nH]c(SCc2nc3ccccc3n2Cc2ccccc2)nc2ccccc12 | 102.7 | . | . | -2.1 | i | 0.92 | -1.3
Cc1c(Nc2cc(=O)oc3ccccc23)c(=O)n(-c2ccccc2)n1C | 93.8 | -56.8 | 119.7 | -5.7 | i | 0.97 | -0.5
CCOC(=O)CN(c1ccccn1)S(=O)(=O)c1ccccc1 | 105.0 | 17.1 | 105.6 | 1.8 | i | 1.1 | -3.1
CCn1c(CC(=O)Nc2ccc(C)cc2)nnc1SCC(=O)Nc1nc(C)cs1 | 100.7 | -16.2 | 116.2 | -6.2 | i | 0.87 | -2.3
CCn1cc(C(=O)NCCCN2CCCC(C)C2)c(=O)c2cc(S(=O)(=O)N3CCc4ccccc4C3)ccc21 (stereo not given) | 116.9 | -35.7 | 87.2 | -11.1 | . | . | .

Next section:
SMILES | RGS16-Gao | Insulin prom inh | Insulin prom inh cell count | PKD1 inh | HSV augment | HSV augment primary fold | GALR2 ag
Cc1c(-c2ccc(Cl)cc2)[n+](=O)c2c(n1[O-])CCCC2 | 102.3 | . | . | . | i | 0.93 | .
CCOc1ccc(N2C(=O)CC(N3CCN(C(=O)CN4CCCC4)CC3)C2=O)cc1 (stereo not given) | 102.5 | . | . | 5.8 | i | 1 | -1.6
C=C1CCN(C(C(=O)OC)C(C)C)S(=O)(=O)c2ccc(F)cc21 (stereo not given) | 87.6 | . | . | . | i | 0.99 | .
COc1ccc(N2CCN(C(=O)CSc3nnc4c(C)cc5cc(C)ccc5n34)CC2)cc1 | 100.1 | -25.0 | 36.7 | 2.4 | . | . | 0.4
COC(=O)c1ccc(NC(=O)c2ccccc2SC)cc1 | 102.5 | -25.7 | 134.7 | -4.8 | i | 0.95 | -2.3
Cc1nnc(N/N=C/c2c(O)n(-c3cccc(C(F)(F)F)c3)c(=O)c3ccccc23)[nH]c1=O | 96.5 | . | . | . | i | 1.1 | .
CCCC(=O)N1CCCC(c2nc(-c3cccs3)no2)C1 (stereo not given) | 100.6 | -14.3 | 57.9 | -2.2 | i | 0.95 | -1.9
CCOC(=O)C1(CC2CCCCO2)CCN(S(=O)(=O)c2ccc(C)s2)CC1 (stereo not given) | 91.8 | . | . | 0.5 | i | 0.95 | .
CN(CCOc1ccc(Br)cc1)CC(=O)Nc1cccc(S(=O)(=O)NC2=NCCC2)c1 | 96.3 | . | . | 2.8 | i | 0.91 | .
CCOc1ccc(N=Cc2c(O)n(-c3cccc(C)n3)c(=O)c3ccccc23)cc1 | 103.8 | -23.1 | 60.0 | 5.0 | i | 0.88 | -0.1
CN1C(c2ccc(F)cc2)=CS/C1=C(\C#N)c1nnc2n1-c1ccccc1SC2 | 97.2 | . | . | 2.1 | i | 0.97 | -1.1
O=C(c1ccccc1)N1N=C(c2ccco2)CC1c1cccs1 (stereo not given) | 97.4 | . | . | -2.9 | i | 0.94 | .
Cc1c(NC(=O)c2nn3c(c2Br)NC(c2ccccc2)CC3C(F)(F)F)c(=O)n(-c2ccccc2)n1C (stereo not given) | 58.0 | -26.7 | 102.0 | -2.6 | i | 1.08 | -1.4
COc1ccc(C(=O)/C=C/c2ccc3c(c2)OCCO3)cc1 | 102.4 | . | . | . | i | 0.98 | .
COc1ccc(OCc2nc(-c3ccc(F)c(F)c3)cs2)cc1 | 98.7 | . | . | . | i | 1.12 | .
O=C(Nc1nc(-c2ccncc2)cs1)C1COc2ccccc2O1 (stereo not given) | 72.2 | . | . | 2.5 | . | . | 0.4
CC1CCN(CCCNC(=O)c2coc3nc4ccccc4nc23)CC1 | 95.4 | 45.2 | 74.2 | -7.0 | i | 1.1 | 3.2
O=C(O)CCn1c(=O)[nH]c(=O)n(CCC(=O)O)c1=O | 100.9 | . | . | 4.8 | i | 1 | .
O=C(COC(=O)c1cc[n+]([O-])cc1)Nc1ccc2c(c1)OCCO2 | 84.9 | . | . | -12.0 | i | 0.993 | -1.6
COC(=O)c1cn(NC(=O)C2CCCCC2)c(=O)c2ccccc12 | 107.2 | . | . | -5.2 | i | 0.86 | -0.8
CCOC(=O)CCP(=O)(O)C(O)(c1ccccc1)c1ccccc1 | . | 3.6 | 107.9 | -4.3 | i | 0.81 | -2.6
CC(=O)N(CN1C(=O)C2CC=CCC2C1=O)c1cccc(Cl)c1 (stereo not given) | 101.3 | 6.2 | 125.2 | 2.4 | i | 0.86 | -2.7
O=C(Nc1ccccc1N1CCN(c2ccc(F)cc2)CC1)C1CCCCC1 | 98.8 | . | . | -20.2 | i | 0.94 | -1.1
c1ccc(CSc2nnc(-c3cccs3)o2)cc1 | 70.5 | . | . | -4.5 | i | 1.02 | 0.4
CC1=NN(c2ccccc2)C(=O)/C1=C\c1cc(C)n(-c2cccnc2)c1C | 101.5 | . | . | . | i | 0.92 | .

(next part)
SMILES | RGS16-Gao | Insulin prom inh | Insulin prom inh cell count | PKD1 inh | HSV augment | HSV augment primary fold | GALR2 ag
O=C(CN1CCN(Cc2ccccc2)CC1)N/N=C/c1ccc(Br)s1 | 98.8 | . | . | . | i | 1.26 | .
COC(=O)CNC(=O)COC(=O)c1ccc(Cl)nc1 | 100.4 | . | . | -3.9 | i | 1.09 | .
CCC(C)(C)NC(=O)C(c1cccn1C)N(C(=O)Cn1nnc2ccccc21)c1ccc(NC(C)=O)cc1 (stereo not given) | 105.8 | 15.4 | 59.8 | -4.0 | i | 0.93 | .
CCCOc1ccc(N2C(=O)C/C(=C\c3ccccc3)C2=O)cc1 | 105.7 | . | . | . | i | 0.93 | .
CC1NC(=O)NC1CCCCCC(=O)NCCc1ccccc1 (stereo not given) | 109.5 | -103.7 | 89.2 | -9.4 | i | 0.79 | -0.9
N#Cc1nc(COc2ccccc2Cl)oc1N1CCCCCC1 | 50.2 | . | . | -2.9 | i | 0.92 | 1.0
CCOC(=O)c1nn(-c2ccccc2C)c(=O)c2c(N)scc12 | 102.5 | 14.3 | 159.4 | -3.7 | i | 0.96 | .
COCCCNC(=O)c1c(F)c(F)c(F)c(F)c1F | 107.4 | 19.2 | 100.0 | -8.5 | i | 1.2 | -1.1
CCN(CC)c1ccc(C(=O)OCC(=O)Nc2cccc(S(=O)(=O)NC3=NCCCCC3)c2)cc1 | 101.4 | 0.0 | 135.0 | 4.5 | i | 0.82 | -0.4
COc1ccc(CC(=O)Nc2ccc(OC)c(NC(=O)c3ccco3)c2)cc1 | 91.0 | -43.8 | 64.9 | 2.6 | i | 0.85 | -2.2
CCN(CC)CCOC(=O)C1c2ccccc2Oc2ccccc21 | 95.2 | 34.3 | 77.9 | -10.0 | i | 1.29 | -2.8
CCOC(=O)N1CCN(C(=O)c2ccc(OC)c(S(=O)(=O)N3CCOCC3)c2)CC1 | 84.2 | 77.8* | 142.5* | -2.0 | i | 0.99 | .
CCCC(=O)NC(NC(=S)Nc1ccc(S(N)(=O)=O)cc1)C(Cl)(Cl)Cl (stereo not given) | 103.8 | -33.3 | 84.5 | -5.1 | i | 1.09 | -0.4
CCc1nnc(NC(=O)c2cc(S(=O)(=O)N3CCCCC3)ccc2N2CCOCC2)s1 | 90.5 | -22.2 | 103.3 | 2.0 | i | 1 | .
CCN(CC)S(=O)(=O)c1cc(NC(=O)Cn2cnc3ccccc3c2=O)ccc1C | 95.1 | 13.8 | 138.8 | 3.3 | i | 0.9 | -1.6
CCOc1ccc(NC(=O)CC2SC(=O)N(c3ccccc3)C2=O)cc1 (stereo not given) | 94.2 | . | . | -0.2 | i | 0.93 | .
Cc1cccc(N(CC(=O)NC2CCCC2)C(=O)c2nsc(Cl)c2Cl)c1C | 99.3 | . | . | -8.4 | i | 0.94 | .
CC(=C/c1ccccc1)/C=N/NC(=O)c1cc(C)oc1C | 97.6 | -1.6 | 105.2 | -6.2 | i | 1.12 | -0.8
S=c1[nH]c2cc(Cl)ccc2s1 | 105.2 | -31.6 | 93.4 | -2.0 | i | 0.92 | -0.5
CCOC(=O)c1c(C)c(C(=O)NC2CCCCCC2)c(C)n1C | 99.5 | 12.5 | 115.4 | -1.0 | i | 0.93 | -1.5

Source: PubChem (several laboratories)
